# Bioassay records from PubChem.
# Methyltransferases: Primary Screen for Target Class Profiling of Small Molecule Inhibitors of Methyltransferases | 25,000 compounds, 3.9% hits | purified enzyme, MTase-Glo SAH luminescence; stronger effect = lower value | calls only at 40 µM; active = -50% or lower on at least one of six enzymes; inconclusive = the cases between; inactive = as a rule above -30% on all six;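 also: enzymes were COMT GAMT GNMT HNMT NNMT and PNMT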
#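 Each enzyme was assayed with SAM and its substrate. SAH formation detected by MTase-Glo luminescence; single-point 40 uM screen[…].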
# Calls only; i = inactive; ? = inconclusive; + = active, no number. % is scaled to controls: 0 for no effect and ±100 for the full control effect. An excerpt; count on the stated rates, not on these rows.
SMILES,Methyltransferases
O=C(NCc1ccc(F)c(F)c1)C1CN(C2CCCC2)C(=O)N1 (stereo unspecified),i
CC(C)OCCCn1c(=O)c2ccccc2n2c(SCC(=O)Nc3ccc4c(c3)OCO4)nnc12,i
C/C=C(/COC(=O)/C(C)=C/C)C(=O)OC(CC)c1ccc(OC)c(OC)c1 (stereo unspecified),i
Cc1ccc(C)c(C(=O)Cn2nc3n(C)c(=O)c4ccc(C(=O)NC5CCCC5)cc4n3c2=O)c1,i
CCCn1c(=O)c2ccccc2n2c(=O)n(CC(=O)c3ccc(F)cc3)nc12,i
NC1=N[C@@]2(c3cc(NC(=O)c4ccc(F)cn4)ccc3F)COC[C@H]2CS1,?
COc1ccc(CN2C(=O)c3cc4ccccc4n3CC2(C)C(=O)NCCCOC(C)C)cc1 (stereo unspecified),i
CCc1nc(C(N)=O)c(Nc2ccc(N3CCC(N4CCN(C)CC4)CC3)c(OC)c2)nc1NC1CCOCC1,+
CCN(C)C(=O)CN1C[C@@H]2C[C@H]1C(=O)N2c1cc(-c2ccccc2)ccc1OC,i
O=C(CCc1nnc2n(CCc3ccccc3)c(=O)c3ccccc3n12)NCc1ccc2c(c1)OCO2,i
O[C@@H]1CCN(Cc2nc(C3(O)CCN(Cc4ccccc4F)CC3)cs2)C1,i
CCCn1c(=O)c2ccc(C(=O)NC(C)CC)cc2n2c(=O)n(CC(=O)c3ccc(C)cc3C)nc12 (stereo unspecified),i
O=C(CCC1CCCN(S(=O)(=O)c2ccc(F)cc2)C1)NCc1ccco1 (stereo unspecified),i
CCC[C@@H]1CN(C(=O)c2ccccc2-c2ccccc2F)C[C@H]1NC(C)=O,i
CCCC1c2cccn2CCN1C(=O)Nc1ccc(C)c(F)c1 (stereo unspecified),i
CCCn1c(=O)c2cc(Cl)ccc2n2c(SCc3cccc(C)c3)nnc12,i
COc1ccc(-n2nc(C3CCCN(C(=O)c4ccc(Cl)nc4)C3)[nH]c2=O)cc1 (stereo unspecified),i
CC(C)=CCC/C(C)=C/Cc1ccc(O)c(C2OC(=O)c3cc(C(=O)O)cc(O)c32)c1O (stereo unspecified),?
C=Cc1ccc(CSc2nnc3n(Cc4ccccc4)c(=O)c4ccccc4n23)cc1,i
CCCSCCCN1C(=O)c2cc3sc(CC)cc3n2CC1(C)C(=O)NC1CCCCCC1 (stereo unspecified),i
C[C@H]1[C@@H]2[C@@H](O)C([C@H](C)C(=O)NCc3cccnc3)CC[C@@]2(C)CC[C@@H]1NC(=O)c1ccccn1 (stereo partly specified),i
Clc1cccc(N2CCN(c3nc4ccccc4c4nc(-c5cccnc5)nn34)CC2)c1,?
CN1CCC(C(=O)NCc2c[nH]c3ncccc23)CC1,i
Cc1nn2c(c1-c1ccccc1-c1ccccc1)N(C(=O)c1cnccn1)CCC2,i
Cc1ccc2c(c1)c1c3n2CCN(C(C)c2ccccc2)C3CCC1 (stereo unspecified),i
CC(C)CNC(=O)c1ccc2c(=O)n(C(C)C)c3nn(CC(=O)c4ccc(Cl)cc4)c(=O)n3c2c1,i
NC(=O)[C@H](CC1CCCCC1)NC(=O)[C@@H]1CN(C(=O)Nc2ccccc2)CCN1C(=O)C1CCCCC1,i
COCCCNC(=O)C1(C)Cn2nc(-c3ccccc3)cc2C(=O)N1c1cccc(SC)c1 (stereo unspecified),i
COc1ccc([C@@H]2CN(c3nnnn3-c3ccccc3)C[C@H]2NC(C)=O)cc1,i
COc1c(CCC(=O)O)cccc1O[C@@H]1O[C@H](CO)[C@@H](O)[C@H](O)[C@H]1O,+
CC(C)(C)n1nc(Cc2cccc3ccccc23)c2c(N)ncnc21,?
CCOC(=O)c1cc2n(n1)CC(C)(C(=O)NC1CCCC1)N(c1cc(Cl)ccc1C)C2=O (stereo unspecified),i
COc1ccc(CNC(=O)CNC(=O)C2(C)Cn3c(cc4ccccc43)C(=O)N2C)cc1 (stereo unspecified),i
CC/C=C\[C@H](O)[C@H](O)C1=C(C)C(=O)[C@]2(O1)C(=O)N[C@@](OC)(C(=O)c1ccccc1)[C@@H]2O,i
Cc1ccc(CCN2C(=O)Cn3cccc3C2C(=O)NC2CCCCC2C)cc1 (stereo unspecified),i
O=c1c2ccccc2n2c(-c3cccc(F)c3)nnc2n1Cc1ccc(F)cc1,i
CC(C)CCn1c(=O)c2ccccc2n2c(CCC(=O)NCc3ccc4c(c3)OCO4)nnc12,i
C=CC1C(O[C@@H]2O[C@H](CO)[C@@H](O)[C@H](O)[C@H]2O)OC=C(C(=O)OC)C1CC(=O)O (stereo partly specified),i
CCCN1C(=O)c2cc3ccccc3n2CC1(C)C(=O)NC1CCCCCC1 (stereo unspecified),i
Cn1c(=O)c2ccc(C(=O)NC3CCCC3)cc2n2c(SCC(N)=O)nnc12,i

# In another format: entries from further up
compound	Methyltransferases
O=C(CCc1nnc2n(CCc3ccccc3)c(=O)c3ccccc3n12)NCc1ccc2c(c1)OCO2	i
C=Cc1ccc(CSc2nnc3n(Cc4ccccc4)c(=O)c4ccccc4n23)cc1	i
C=CC1C(O[C@@H]2O[C@H](CO)[C@@H](O)[C@H](O)[C@H]2O)OC=C(C(=O)OC)C1CC(=O)O (stereo partly specified)	i
NC1=N[C@@]2(c3cc(NC(=O)c4ccc(F)cn4)ccc3F)COC[C@H]2CS1	?
CCN(C)C(=O)CN1C[C@@H]2C[C@H]1C(=O)N2c1cc(-c2ccccc2)ccc1OC	i

# Following part.
SMILES,Methyltransferases
Cc1ccccc1NC(=O)c1cc2n(n1)CC(c1ccc(Cl)cc1)OC2 (stereo unspecified),i
O[C@@H]1CC(CNCc2ccc(F)cc2)(COc2cccnc2)C[C@@H]1O (stereo partly specified),i
CCOc1ccccc1NC(=O)Nc1cccc(-c2ccc(N3CCCC3)nn2)c1,i
C[C@@H]1CN(C(=O)c2cnc3sccn3c2=O)C[C@@]1(O)C1CCC1,i
CC1C=CC2CCCCC2C1CCC1CC(O)CC(=O)O1 (stereo unspecified),i
CC(C)c1noc(-c2cn(C3CCCN(C(=O)c4ccc[nH]4)C3)nn2)n1 (stereo unspecified),i
CC(C)(O)C#Cc1ccc(C(=O)N2CCOCC2CC(=O)O)o1 (stereo unspecified),i
Cc1noc(-c2ccccc2OC2CCNC2)n1 (stereo unspecified),i
NC(=NCCCCCCN=C(N)/N=C(\N)Nc1ccc(Cl)cc1)/N=C(\N)Nc1ccc(Cl)cc1,+
CC(=O)NC1(C)CCN(Cc2cnc(-c3cccc(F)c3)s2)CC1,i
COc1ccc(Cn2c(=O)c3ccccc3n3c(-c4ccccc4OC)nnc23)cc1,i
CCCC1(C2CCN(C(=O)Cc3ccc(OC)cc3)CC2)NC(=O)N(CCc2cccs2)C1=O (stereo unspecified),i
CC(C)c1cccc(C(C)C)c1N1C(=O)c2ccc(O)cc2C1=O,i
O=C(O)C[C@@H]1CCN(C(=O)c2ccc(F)cc2)C[C@@H]1CCN1CCN(c2ccc(F)cc2)CC1,i
CC(C)CCNc1nc2c(-c3ccccc3)nnn2c2ccccc12,i
COc1ccc(-c2cc3n(n2)CC(C)(C(=O)NCc2ccccc2)N(c2ccc(Cl)cc2)C3=O)cc1 (stereo unspecified),i
CCOC(=O)c1cc2n(n1)CC(C)(C(=O)NCc1ccc(C)cc1)N(c1cc(Cl)ccc1C)C2=O (stereo unspecified),i
CC(C)(C)c1nn2c(SCC(=O)Nc3cccc(Cl)c3)nnc2[nH]c1=O,i
CC1CCC(NC(=O)c2cc3n(n2)CC(c2ccc(Cl)cc2)OC3)CC1 (stereo unspecified),i
COc1cccc(CNC(=O)N2Cc3c(sc4c3CCCC4)-n3cccc3C2c2cccc(OC)c2)c1 (stereo unspecified),i

# The final 7 records of the part before open the next one:
SMILES,Methyltransferases
O=C(O)C[C@@H]1CCN(C(=O)c2ccc(F)cc2)C[C@@H]1CCN1CCN(c2ccc(F)cc2)CC1,i
CC(C)CCNc1nc2c(-c3ccccc3)nnn2c2ccccc12,i
COc1ccc(-c2cc3n(n2)CC(C)(C(=O)NCc2ccccc2)N(c2ccc(Cl)cc2)C3=O)cc1 (stereo unspecified),i
CCOC(=O)c1cc2n(n1)CC(C)(C(=O)NCc1ccc(C)cc1)N(c1cc(Cl)ccc1C)C2=O (stereo unspecified),i
CC(C)(C)c1nn2c(SCC(=O)Nc3cccc(Cl)c3)nnc2[nH]c1=O,i
CC1CCC(NC(=O)c2cc3n(n2)CC(c2ccc(Cl)cc2)OC3)CC1 (stereo unspecified),i
COc1cccc(CNC(=O)N2Cc3c(sc4c3CCCC4)-n3cccc3C2c2cccc(OC)c2)c1 (stereo unspecified),i
COc1cccc(C(=O)N2CCC3(CCNCC3)CC2)c1C,i
CCc1cc2c(cc3n2CC(C)(C(=O)NC2CCC(C)CC2)N(c2cccc(F)c2)C3=O)s1 (stereo unspecified),i
CNC(=O)N1CCC(C2CCN(C(=O)NCc3cccc(OC)c3)C2)CC1 (stereo unspecified),i
CC(NS(=O)(=O)c1ccc(Cl)c(-c2nnc(-c3ccccc3)o2)c1)C(=O)O (stereo unspecified),i
COC(=O)c1ncn2c1C(=O)N(c1ccc(C)c(C)c1)C(C)(C(=O)NCc1ccccc1)C2 (stereo unspecified),i
CC(C)=CCC[C@](C)(O)[C@H]1CC[C@]2(C)[C@@H]1[C@H](O)CC1[C@@]3(C)CC[C@H](O)C(C)(C)[C@@H]3[C@@H](O[C@@H]3O[C@H](CO)[C@@H](O)[C@H](O)[C@H]3O[C@@H]3O[C@H](CO)[C@@H](O)[C@H](O)[C@H]3O)C[C@]12C (stereo partly specified),i
O=C(c1ccc(Cl)s1)N1CCC2(COc3ncccc3S(=O)(=O)N2)C1 (stereo unspecified),i
COc1ccccc1CN[C@H]1CC(C)(C)[C@@H]2C[C@@](C)(O)CC[C@]12CCC(=O)NCCN1CCOCC1,i
COc1cccc(CN2CCCC3(CCN(c4cc(C)nc(N)n4)C3)C2)c1OC (stereo unspecified),+
Cc1ncccc1C(=O)N1CC[C@@H]2COCCN(Cc3ccncc3)[C@@H]2C1,i
CCOc1cccc(CN2C[C@@H](Oc3ccccc3)C[C@@H]2C(=O)NC)c1,i
CCCN1C(=O)c2c(C(=O)NCCc3ccc(Cl)cc3)ncn2CC1(C)C(=O)NCc1ccc(F)cc1 (stereo unspecified),i
O=C(C[C@@H]1C[C@H]2O[C@H](CNC3CCC(F)(F)CC3)[C@@H](O)[C@H]2O1)N1CCC(F)(F)C1,i
CN(CC(=O)Nc1ccccc1F)S(=O)(=O)c1ccc2[nH]c3c(c2c1)CCCC3,i
CCCC1c2ccc(C)n2CCN1C(=O)NCc1ccc(C)cc1 (stereo unspecified),i
NC1CCCCN(C(=O)c2ccc(Cn3cccn3)o2)C1 (stereo unspecified),i
CC(C)C1=NOC2(CCN([S+](=O)([O-])c3cccs3)C2)C1 (stereo unspecified),i
CCc1cc2c(cc3n2CC(C(=O)NC2CCCCC2)(c2ccccc2)N(Cc2ccccc2Cl)C3=O)s1 (stereo unspecified),i
CN(C)C[C@H]1C[C@@H](CO)CN(C(=O)c2ccccc2-c2ccc(F)cc2)C1,i
O=C(CCn1ccc2cc(S(=O)(=O)N3CCCCC3)ccc21)NCCc1ccccc1Cl,i

# Part of the list above, with tabs.
SMILES	Methyltransferases
CCc1cc2c(cc3n2CC(C(=O)NC2CCCCC2)(c2ccccc2)N(Cc2ccccc2Cl)C3=O)s1 (stereo unspecified)	i
O=C(CCn1ccc2cc(S(=O)(=O)N3CCCCC3)ccc21)NCCc1ccccc1Cl	i

# (more compounds)
SMILES,Methyltransferases
C[C@@H]1O[C@@H](OC2C(CO)OC(OCC3OC(OC(=O)[C@]45CCC(C)(C)CC4C4=CCC6[C@@]7(C)CC[C@@H](O)[C@](C)(C(=O)O)C7CC[C@@]6(C)[C@]4(C)CC5)C(O)C(O)C3O)C(O)C2O)[C@H](O)[C@H](O)[C@H]1O (stereo partly specified),i
COCCCN1C(=O)c2nc3ccccc3n2CC1(C)C(=O)NC1CCCCCC1 (stereo unspecified),i
COc1ccc2[nH]c(C(=O)N3CCCCCNC(=O)[C@@H]4CCC[C@@H]43)cc2c1,i
O=C(NCC1CC1)c1nc2c(o1)CCN(CCCc1ccccc1)CC2,i
CC(C)Cn1c(=O)c2ccc(C(=O)NC3CCCC3)cc2n2c(SCC(=O)NC(C)(C)C)nnc12,i
CN(C)CCN1CC2(CCN(C(=O)CCCS(N)(=O)=O)CC2)OC1=O,i
CC1(C(=O)NCc2ccccc2)Cn2nc(-c3ccccc3)cc2C(=O)N1CCc1ccco1 (stereo unspecified),i
O=C(C1CCCN1C(=O)C1CC1)N1CCCC(c2nc3ncccc3[nH]2)C1 (stereo unspecified),i
CC(C)CNC(=O)c1ccc2c(=O)n(C(C)C)c3nn(CC(=O)NCc4ccccc4)c(=O)n3c2c1,i
CC(C(=O)NCCc1ccc(Cl)cc1)n1ccc2cc(S(=O)(=O)N3CCCC3)ccc21 (stereo unspecified),i
CC1(C(=O)NC2CCCCC2)Cn2c(c(-n3cccc3)c3ccccc32)C(=O)N1Cc1cccnc1 (stereo unspecified),i
O=C1OC(/C=C/c2ccccc2)=NC/1=C\c1cccnc1,?
Cc1ccccc1NC(=O)Cn1nc2n(CC(C)C)c(=O)c3ccc(C(=O)NCC(C)C)cc3n2c1=O,i
CC(C)CN1C(=O)CCc2cc(NC(=O)C3CCC3)ccc21,i
CC(=O)N1CCN(CCOc2ccc(C3CCN(C4=Nn5c(nnc5C(F)(F)F)CC4)CC3)cc2)CC1,i
NC(=O)[C@H]1C[C@@H](O)[C@H](O)[C@H]2[C@@H]1SC(=Nc1ccc(Cl)cc1)N2CC1CCCCC1,i
Clc1ccc(-c2nnn3c2nc(NCC2CCCO2)c2ccccc23)cc1 (stereo unspecified),i
CC(CNC(=O)CCCc1nnc2n3nc(-c4ccccc4)nc3c3ccccc3n12)c1ccccc1 (stereo unspecified),i
COc1ccc(CN2C(=O)c3cc(-c4ccco4)nn3CC2(C)C(=O)NC2CCCCC2)cc1 (stereo unspecified),i
CC(=O)Nc1sc2c(c1-c1nc3ccccc3s1)CNC2,i
O=C(c1ccc(=O)[nH]n1)N1CCc2ncnc(N3CCOCC3)c2CC1,i
COc1cccc([S+](=O)([O-])N2CCC3(CC(C)=NO3)C2)c1 (stereo unspecified),i
COc1ccc(CCNc2nc3c(S(=O)(=O)c4ccccc4)nnn3c3ccccc23)cc1OC,?
